# Compound activity deposited in PubChem by Broad Institute.
# Ran FRET: RanGTP/importin-beta interaction disruptors – biochemical, CFP-Ran/YFP-importin-beta FRET, RCC1, cell-free, primary screen (AID 434961); CFP-Ran/YFP-importin-beta FRET, cell-free; stronger effect = higher value; inhibition, %; actives 0.2% (n = 7,700);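 active = more than half of the replicate wells above 15% inhibition; inconclusive = exactly half above it; inactive = fewer than half above it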;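 also: 0% = DMSO wells and 100% inhibition = RanGDP control wells on each plate; stock of unstated strength diluted about 400-fold; mean of two wells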
# * hit, by the source's call; ? = inconclusive. An excerpt, so the mix of outcomes need not match the whole.
COc1ccc(S(=O)(=O)Nc2cccc3c2O[C@@H](CN(C)Cc2ccncc2)[C@H](C)CN([C@H](C)CO)C3=O)cc1
  Ran FRET = 4.2

CNC[C@@H]1Oc2ccc(NC(=O)Nc3ccc(F)cc3)cc2C(=O)N([C@@H](C)CO)C[C@H]1C
  Ran FRET = 1.3

CC(C)NC(=O)N(C)C[C@@H]1OCCCC[C@@H](C)Oc2ccc(NS(C)(=O)=O)cc2C(=O)N([C@@H](C)CO)C[C@H]1C
  Ran FRET = 8.0

COc1ccc(NC(=O)Nc2ccc3c(c2)C(=O)N([C@@H](C)CO)C[C@H](C)[C@@H](CN(C)C)O3)cc1
  Ran FRET = -4.6

C[C@H]1CN([C@@H](C)CO)C(=O)c2cc(NC(=O)NC3CCCCC3)ccc2O[C@H]1CN(C)C(=O)NC1CCCCC1
  Ran FRET = 2.1

C[C@@H]1CN([C@@H](C)CO)C(=O)c2cc(NS(C)(=O)=O)ccc2O[C@@H](C)CCCCO[C@@H]1CN(C)C(=O)c1ccccc1
  Ran FRET = -2.1

Cc1noc(C)c1NC(=O)Nc1cccc2c1O[C@@H](CN(C)CC1CC1)[C@H](C)CN([C@@H](C)CO)C2=O
  Ran FRET = -1.8

Cc1noc(C)c1NC(=O)Nc1cccc2c1O[C@H](CN(C)CC1CC1)[C@H](C)CN([C@H](C)CO)C2=O
  Ran FRET = 1.1

C[C@@H]1CN([C@H](C)CO)C(=O)c2cc(NC(=O)Nc3ccccc3)ccc2O[C@@H]1CN(C)C(=O)Nc1ccccc1
  Ran FRET = -1.8

CC(C)NC(=O)N(C)C[C@H]1Oc2ccc(NS(=O)(=O)c3cn(C)cn3)cc2CC(=O)N([C@H](C)CO)C[C@H]1C
  Ran FRET = -4.2

COc1ccc(CN(C)C[C@@H]2Oc3ccc(NC(=O)Cc4ccccc4)cc3C(=O)N([C@@H](C)CO)C[C@@H]2C)cc1
  Ran FRET = -1.2

CNC[C@@H]1OCc2cnnn2CCCC(=O)N([C@H](C)CO)C[C@@H]1C
  Ran FRET = -1.3

C[C@@H]1CN([C@H](C)CO)C(=O)Cc2cc(NC(=O)NC3CCCCC3)ccc2O[C@H]1CN(C)Cc1ccccc1
  Ran FRET = -1.7

C[C@@H]1CN([C@H](C)CO)C(=O)c2cc(NC(=O)Cc3cn(C)c4ccccc34)ccc2O[C@@H]1CN(C)C(=O)Nc1ccccc1
  Ran FRET = 0.2

C[C@H]1CN([C@@H](C)CO)C(=O)c2cccc(NC(=O)c3ccc(-c4nccs4)cc3)c2O[C@@H]1CN(C)S(=O)(=O)c1cccs1
  Ran FRET = -0.7

C[C@@H]1CCCCO[C@@H](CN(C)S(=O)(=O)c2cn(C)cn2)[C@H](C)CN([C@@H](C)CO)C(=O)c2cc(NS(C)(=O)=O)ccc2O1
  Ran FRET = -1.3

COc1ccc(S(=O)(=O)N(C)C[C@@H]2Oc3c(NS(=O)(=O)c4ccccc4)cccc3C(=O)N([C@@H](C)CO)C[C@H]2C)cc1
  Ran FRET = 1.7

CNC[C@@H]1Oc2ccc(NC(=O)C3CC3)cc2CC(=O)N([C@@H](C)CO)C[C@H]1C
  Ran FRET = -4.6

Cc1noc(C)c1S(=O)(=O)N(C)C[C@@H]1Oc2ccc(NS(C)(=O)=O)cc2CC(=O)N([C@H](C)CO)C[C@@H]1C
  Ran FRET = ?

C[C@@H]1CN([C@@H](C)CO)C(=O)c2cc(NC(=O)Cn3cnnn3)ccc2O[C@@H]1CN(C)Cc1ccncc1
  Ran FRET = 4.6

COc1ccc(S(=O)(=O)N(C)C[C@@H]2Oc3ccc(NC(=O)Nc4ccc(C(F)(F)F)cc4)cc3CC(=O)N([C@@H](C)CO)C[C@H]2C)cc1
  Ran FRET = -6.8

CC(C)NC(=O)Nc1ccc2c(c1)C(=O)N([C@H](C)CO)C[C@H](C)[C@H](CN(C)C(=O)Nc1ccccc1)OCCCC[C@@H](C)O2
  Ran FRET = 0.5

C[C@H]1CN([C@@H](C)CO)C(=O)Cc2cc(NC(=O)c3ccncc3)ccc2O[C@H]1CN(C)C(=O)Nc1ccc(F)cc1
  Ran FRET = 0.8

C[C@H](CO)N1C[C@H](C)[C@@H](CN(C)C(=O)NC2CCCCC2)Oc2ccc(NC(=O)Nc3ccc(C(F)(F)F)cc3)cc2CC1=O
  Ran FRET = 0.2

Cc1noc(C)c1S(=O)(=O)N(C)C[C@H]1Oc2ccc(NS(=O)(=O)c3ccc(Cl)cc3)cc2CC(=O)N([C@@H](C)CO)C[C@H]1C
  Ran FRET = -3.9

COc1ccc(NC(=O)Nc2cccc3c2O[C@@H](CN(C)Cc2ccncc2)[C@H](C)CN([C@H](C)CO)C3=O)cc1
  Ran FRET = -0.4

CC(C)NC(=O)Nc1ccc2c(c1)CC(=O)N([C@H](C)CO)C[C@@H](C)[C@@H](CN(C)CC1CC1)O2
  Ran FRET = -0.9

C[C@@H]1CN([C@@H](C)CO)C(=O)Cc2cc(NC(=O)c3ccncc3)ccc2O[C@H]1CN(C)C(=O)Nc1ccc(F)cc1
  Ran FRET = 2.3

C[C@@H]1CN([C@@H](C)CO)C(=O)c2cc(NC(=O)Nc3ccccc3)ccc2O[C@@H](C)CCCCO[C@@H]1CN(C)C(=O)C1CCCCC1
  Ran FRET = -3.3

C[C@@H]1CCCCO[C@@H](CN(C)Cc2ccccc2)[C@@H](C)CN([C@@H](C)CO)C(=O)c2cc(N(C)C)ccc2O1
  Ran FRET = 0.6

COc1ccc(CN(C)C[C@H]2Oc3ccc(NC(=O)Cc4cn(C)c5ccccc45)cc3CC(=O)N([C@H](C)CO)C[C@H]2C)cc1
  Ran FRET = ?

C[C@H](CO)N1C[C@H](C)[C@H](CN(C)C(=O)Nc2ccccc2)Oc2c(NC(=O)C3CCOCC3)cccc2C1=O
  Ran FRET = 5.3

CNC[C@H]1Oc2ccc(NC(=O)Nc3c(C)noc3C)cc2CC(=O)N([C@@H](C)CO)C[C@H]1C
  Ran FRET = 0.0

COc1ccc(S(=O)(=O)N(C)C[C@@H]2Oc3c(NS(=O)(=O)c4cn(C)cn4)cccc3C(=O)N([C@@H](C)CO)C[C@H]2C)cc1
  Ran FRET = -2.5

C[C@@H]1CN([C@H](C)CO)C(=O)c2cc(NC(=O)C3CC3)ccc2O[C@H]1CN(C)Cc1ccc(C(F)(F)F)cc1
  Ran FRET = -0.7

Cc1noc(C)c1S(=O)(=O)Nc1ccc2c(c1)CC(=O)N([C@@H](C)CO)C[C@H](C)[C@@H](CN(C)C(=O)Nc1ccc(C(F)(F)F)cc1)O2
  Ran FRET = 0.1

CC(C)NC(=O)N(C)C[C@@H]1OCCCC[C@H](C)Oc2ccc(NC(=O)Cc3ccccc3)cc2C(=O)N([C@H](C)CO)C[C@H]1C
  Ran FRET = 6.6

Cc1noc(C)c1NC(=O)Nc1ccc2c(c1)C(=O)N([C@H](C)CO)C[C@@H](C)[C@H](CN(C)C(=O)Nc1c(C)noc1C)OCCCC[C@@H](C)O2
  Ran FRET = -3.3

CCCN(C)C[C@@H]1OCCCC[C@@H](C)Oc2ccc(NC(=O)NC(C)C)cc2C(=O)N([C@@H](C)CO)C[C@@H]1C
  Ran FRET = ?

Cc1noc(C)c1S(=O)(=O)Nc1ccc2c(c1)CC(=O)N([C@@H](C)CO)C[C@@H](C)[C@@H](CN(C)C(=O)Nc1cccc3ccccc13)O2
  Ran FRET = -2.7

C[C@@H]1CN([C@@H](C)CO)C(=O)c2cc(NC(=O)Nc3ccccc3)ccc2O[C@@H]1CN(C)C(=O)Nc1ccccc1
  Ran FRET = -3.7

C[C@@H]1CN([C@@H](C)CO)C(=O)Cc2cc(NC(=O)NC3CCCCC3)ccc2O[C@H]1CN(C)C(=O)Nc1cccc2ccccc12
  Ran FRET = ?

C[C@@H]1CN([C@H](C)CO)C(=O)c2cc(NC(=O)Nc3ccccc3)ccc2O[C@H]1CN(C)C(=O)Nc1ccc(C(F)(F)F)cc1
  Ran FRET = -1.7

Cc1noc(C)c1NC(=O)Nc1ccc2c(c1)C(=O)N([C@@H](C)CO)C[C@@H](C)[C@@H](CN(C)C)OCCCC[C@H](C)O2
  Ran FRET = -4.5

C[C@H]1CN([C@@H](C)CO)C(=O)c2cc(NC(=O)NC3CCCCC3)ccc2O[C@@H]1CN(C)S(=O)(=O)c1ccc(Cl)cc1
  Ran FRET = ?

# Some of these compounds in order of the Ran FRET value, smallest number first.
Cc1noc(C)c1NC(=O)Nc1ccc2c(c1)C(=O)N([C@@H](C)CO)C[C@@H](C)[C@@H](CN(C)C)OCCCC[C@H](C)O2
  Ran FRET = -4.5

COc1ccc(S(=O)(=O)N(C)C[C@@H]2Oc3c(NS(=O)(=O)c4cn(C)cn4)cccc3C(=O)N([C@@H](C)CO)C[C@H]2C)cc1
  Ran FRET = -2.5

CNC[C@H]1Oc2ccc(NC(=O)Nc3c(C)noc3C)cc2CC(=O)N([C@@H](C)CO)C[C@H]1C
  Ran FRET = 0.0

# The listing continues:
C[C@@H]1CN([C@H](C)CO)C(=O)c2cccc(NC(=O)C3CCOCC3)c2O[C@@H]1CN(C)Cc1ccc(C(=O)O)cc1
  Ran FRET = 0.2

C[C@@H]1CN([C@H](C)CO)C(=O)c2cc(NS(=O)(=O)c3ccccc3)ccc2O[C@H]1CN(C)C
  Ran FRET = 4.5

C[C@H](CO)N1C[C@H](C)[C@H](CN(C)C(=O)Nc2ccc(F)cc2)Oc2ccc(NC(=O)c3ccncc3)cc2C1=O
  Ran FRET = 0.9

COc1ccc(S(=O)(=O)Nc2ccc3c(c2)CC(=O)N([C@H](C)CO)C[C@H](C)[C@@H](CN(C)Cc2ccc(C(F)(F)F)cc2)O3)cc1
  Ran FRET = 1.9

CNC[C@H]1Oc2c(NC(=O)c3cnccn3)cccc2C(=O)N([C@H](C)CO)C[C@H]1C
  Ran FRET = -1.2

C[C@H](CO)N1C[C@H](C)[C@@H](CN(C)S(=O)(=O)c2cccs2)Oc2ccc(NC(=O)Nc3ccc(F)cc3)cc2C1=O
  Ran FRET = 1.3

COc1ccc(S(=O)(=O)N(C)C[C@@H]2Oc3c(NC(=O)c4cc(C)nn4C)cccc3C(=O)N([C@@H](C)CO)C[C@H]2C)cc1
  Ran FRET = -4.2

C[C@H]1CN([C@@H](C)CO)C(=O)c2cccc(NS(=O)(=O)c3cccs3)c2O[C@@H]1CN(C)C(=O)NC1CCCCC1
  Ran FRET = 0.1

COc1ccc(S(=O)(=O)Nc2cccc3c2O[C@H](CN(C)S(=O)(=O)c2cn(C)cn2)[C@H](C)CN([C@H](C)CO)C3=O)cc1
  Ran FRET = 1.7

C[C@H]1CN([C@@H](C)CO)C(=O)c2cc(N(C)C)ccc2O[C@H]1CN(C)C(=O)NC1CCCCC1
  Ran FRET = -1.1

C[C@H](CO)N1C[C@H](C)[C@@H](CN(C)C(=O)Nc2ccc(F)cc2)Oc2c(NC(=O)Nc3cccc4ccccc34)cccc2C1=O
  Ran FRET = -0.8

C[C@H](CO)N1C[C@H](C)[C@H](CN(C)Cc2ccncc2)Oc2ccc(NC(=O)C3CC3)cc2CC1=O
  Ran FRET = -1.1

C[C@H]1CCCCO[C@H](CN(C)C(=O)Nc2ccccc2)[C@@H](C)CN([C@@H](C)CO)C(=O)c2cc(NC(=O)CCC(F)(F)F)ccc2O1
  Ran FRET = 4.4

C[C@H]1CN([C@@H](C)CO)C(=O)c2cc(NC(=O)Cc3cn(C)c4ccccc34)ccc2O[C@H]1CN(C)C(=O)Nc1ccccc1
  Ran FRET = -2.9

CC(C)NC(=O)Nc1ccc2c(c1)C(=O)N([C@@H](C)CO)C[C@@H](C)[C@@H](CN(C)S(=O)(=O)c1cccs1)OCCCC[C@H](C)O2
  Ran FRET = 3.9

C[C@H](CO)N1C[C@H](C)[C@H](CN(C)S(=O)(=O)c2cccs2)Oc2c(NC(=O)Nc3cccc4ccccc34)cccc2C1=O
  Ran FRET = 0.8

C[C@@H]1CN([C@@H](C)CO)C(=O)c2cc(NC(=O)NC3CCCCC3)ccc2O[C@H]1CN(C)C
  Ran FRET = -0.5

COc1ccc(CN(C)C[C@H]2Oc3c(NS(=O)(=O)c4cccs4)cccc3C(=O)N([C@H](C)CO)C[C@H]2C)cc1
  Ran FRET = -1.2

C[C@H](CO)N1C[C@H](C)[C@@H](CN(C)C(=O)NC2CCCCC2)Oc2c(NS(=O)(=O)c3cn(C)cn3)cccc2C1=O
  Ran FRET = -4.8

C[C@@H]1CN([C@@H](C)CO)C(=O)c2cc(NS(=O)(=O)c3ccccc3)ccc2O[C@@H](C)CCCCO[C@@H]1CN(C)Cc1ccc2c(c1)OCO2
  Ran FRET = 3.7

CNC[C@H]1Oc2ccc(NC(=O)Nc3ccc(F)cc3)cc2C(=O)N([C@@H](C)CO)C[C@H]1C
  Ran FRET = -6.0

C[C@H](CO)N1C[C@H](C)[C@H](CN(C)C(=O)NC2CCCC2)Oc2ncc(Br)cc2C1=O
  Ran FRET = -1.4

COc1ccc(S(=O)(=O)N(C)C[C@H]2Oc3ccc(NC(=O)Cc4cn(C)c5ccccc45)cc3CC(=O)N([C@@H](C)CO)C[C@H]2C)cc1
  Ran FRET = 1.1

C[C@H]1CN([C@@H](C)CO)C(=O)Cc2cc(NS(=O)(=O)c3cccs3)ccc2O[C@@H]1CN(C)S(=O)(=O)c1ccccc1
  Ran FRET = -4.3

C[C@@H]1CN([C@H](C)CO)C(=O)c2cc(NC(=O)Cc3ccccc3)ccc2O[C@@H](C)CCCCO[C@@H]1CN(C)C(=O)c1ccncc1
  Ran FRET = -0.8

CC(C)NC(=O)Nc1ccc2c(c1)CC(=O)N([C@H](C)CO)C[C@@H](C)[C@H](CN(C)Cc1ccc(-c3ccccc3)cc1)O2
  Ran FRET = -2.7

C[C@H](CO)N1C[C@H](C)[C@H](CN(C)C(=O)Nc2ccccc2)OCCCC[C@H](C)Oc2ccc(NC(=O)CCC(F)(F)F)cc2C1=O
  Ran FRET = 0.9

CC(C)NC(=O)N(C)C[C@H]1OCCCC[C@@H](C)Oc2ccc(NC(=O)Nc3ccc(F)cc3)cc2C(=O)N([C@H](C)CO)C[C@@H]1C
  Ran FRET = -2.0

CC(C)NC(=O)N(C)C[C@@H]1OCCCC[C@H](C)Oc2ccc(N(C)C)cc2C(=O)N([C@@H](C)CO)C[C@@H]1C
  Ran FRET = 4.7

C[C@@H]1CN([C@H](C)CO)C(=O)CCCn2cc(nn2)CO[C@H]1CN(C)C(=O)CCC(F)(F)F
  Ran FRET = -5.5
